# Source: PubChem (National Center for Advancing Translational Sciences (NCATS))
# Menin-MLL FL inh: inhibitors of human menin-MLL interaction, wild-type MLL peptide. 290,000 tested, under 10 active. FP activity change, % at 61.4 µM. Fluorescence polarization, fluorescein-MLL peptide displacement from menin; inconclusive = falling polarisation curve, or a change in total fluorescence; inactive = total fluorescence flat and polarisation flat or rising; no compound was filed as active; the % refers to the polarisation; negative = inhibition;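 further: % of control where 0% means no effect; inhibitors lower the polarisation; unlabelled MLL peptide was the positive control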
# TRPML1 inh: inhibitors of human TRPML1 channel; Q9GZU1; TRPML1-inducible cells, Ca2+ dye fluorescence, FDSS; hits give low values; inhibition of EC80 agonist-evoked calcium signal; activity change, negative = inhibition, % (no concentration beside the values); actives 0.02% (n = 390,000); AID 624415; in the data active means activity change below about -50%; inconclusive means about -30% to -50%; inactive means above about -30%;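 further: stimulus is agonist 54-4 at its EC80 concentration; on the % scale 0 is the no-effect control and ±100 the full control effect; compound concentration not given in the record; the text of the record puts the active cut at -80%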
# Target sequence (Q9GZU1 whole entry, looked up): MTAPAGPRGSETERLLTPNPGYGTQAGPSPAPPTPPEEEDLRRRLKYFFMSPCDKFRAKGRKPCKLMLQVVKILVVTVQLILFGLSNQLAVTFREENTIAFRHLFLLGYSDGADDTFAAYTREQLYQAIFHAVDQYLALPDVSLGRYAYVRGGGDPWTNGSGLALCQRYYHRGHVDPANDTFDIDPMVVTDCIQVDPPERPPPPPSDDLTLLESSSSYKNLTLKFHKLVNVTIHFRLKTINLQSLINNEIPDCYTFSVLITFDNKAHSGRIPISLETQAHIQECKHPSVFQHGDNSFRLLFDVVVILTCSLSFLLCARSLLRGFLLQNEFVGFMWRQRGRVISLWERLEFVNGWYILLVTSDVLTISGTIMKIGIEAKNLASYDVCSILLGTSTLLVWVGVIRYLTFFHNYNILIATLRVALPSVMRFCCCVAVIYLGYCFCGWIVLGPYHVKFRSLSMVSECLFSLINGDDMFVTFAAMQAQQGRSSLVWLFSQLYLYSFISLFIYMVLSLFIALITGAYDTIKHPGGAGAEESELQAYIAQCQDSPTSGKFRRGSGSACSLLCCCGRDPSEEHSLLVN
#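 Calcium fluorescence in TRPML1-DL cells induced overnight with Tet: a 110 s read after compound pin addition, then a 110 s antagonist read after challenge with 54-4 at 4 uM final (EC80).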
# gsp agonist: agonists of gsp mutant (McCune-Albright syndrome) | actives 0.13% (n = 340,000) | AID 624287 | gsp mutant cells, cAMP HTRF, 30 min; control for the full effect not named in the record | Potency, µM (doses to about 76.9 µM), for inactives: top-dose activation (cAMP increase), usual class: activators; active = well fitted activation curve with a large enough effect; inconclusive = small, poorly fitted or top-dose-only effect, or another doubt; inactive = no such curve, though single readings can be large or run the other way; cell line not stated here;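 further: phosphodiesterase inhibitor Ro 20-1724 added with compounds to block cAMP breakdown; potency means the concentration at half of the fitted maximal effect; nearly all actives have a fitted effect of over 60% in size; about a fifth of the inactives were tested at one dose only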
#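 Cells stably selected in G418 were plated at 2000/well, grown 16-24 hr, then given compounds in DMSO with the PDE inhibitor […] (300 uM solution added) for 30 min at 37C; cAMP was read by HTRF.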
# gsp antag: gsp mutant antagonism. gsp-mutant cells, cAMP HTRF, 30 min; control for the full effect not named in the record. Potency, µM (doses to about 76.9 µM), inactives show at the top dose activity change, negative = inhibition, actives largely listed as inhibitors. actives 0.4% (n = 340,000). AID 624288; active = falling curve of any shape with a large fitted effect; inconclusive = falling curve, mostly with a smaller effect; inactive = flat or rising curve; cell line not stated here;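 further: intracellular cAMP measured with PDE inhibitor Ro 20-1724 present during compound exposure; potency means the concentration at half of the fitted maximal effect; on the % scale 0 is the no-effect control and ±100 the full control effect; nearly all actives have a fitted effect of over 65% in size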
#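 Cells in G418 medium, seeded 16-24 h, 37C; buffer exchange to DPBS + 1 mM CaCl2, 0.5 mM MgCl2, 0.05% BSA; cpds in DMSO + […] (300 uM stock), 30 min 37C; HTRF cAMP detection.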
# ClpP mod: qHTS Assay for Activators of ClpP; purified B. subtilis ClpP, FRET peptide cleavage, 20 min; ATP-dependent Clp protease proteolytic subunit (Bacillus subtilis (strain 168)), P80244; actives 1.9% (n = 340,000); Potency, µM (titrated, usually from 57.5 µM), inactives show at the top dose activity change, negative = active; active = well fitted falling curve with a large enough effect; inconclusive = small, poorly fitted or top-dose-only effect; inactive = no such curve, though single readings can be large or run the other way; further: potency means the concentration at half of the fitted maximal effect; the source files actives as falling curves though it sought activators and does not explain the sign; nearly all actives have a fitted effect of over 65% in size; many hits overshoot -100%
# Target sequence (P80244 whole entry, looked up): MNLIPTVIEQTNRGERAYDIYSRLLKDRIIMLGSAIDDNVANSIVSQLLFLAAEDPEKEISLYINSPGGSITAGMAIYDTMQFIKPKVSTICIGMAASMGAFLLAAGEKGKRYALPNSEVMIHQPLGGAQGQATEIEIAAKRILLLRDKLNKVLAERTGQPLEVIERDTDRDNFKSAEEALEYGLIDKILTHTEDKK
#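 FRET quenching reversal measured ClpP activation: 10 microg/mL B. subtilis ClpP at pH 8 with the FRET-FV decapeptide, read at 430 nm after 320 nm excitation. The 20-min minus 0-min signal was scaled between DMSO/no-enzyme wells and ADEP (5.8 microM final).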
# TRPML1 agonist: activates the human TRPML1 channel; Q9GZU1; TRPML1-expressing cells, Ca2+ dye fluorescence, FDSS; host cell line not named in the record; reference of the full effect not given here; activation, % (test concentration not listed); actives 0.12% (n = 410,000); AID 624414; in the data active = activation above about 50%; inconclusive = about 30% to 50%; inactive = below about 30%; further: 0% is about no effect; the text of the record puts the active cut at 80%
#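 In this qHTS format, compounds were pin-transferred onto Ca8-dye-loaded TRPML1-DL cells induced with Tet overnight, and intracellular Ca2+ fluorescence was recorded kinetically for 110 s after a 10 s baseline. A subsequent 4uM final 54-4 (EC80) addition followed by a second 110 s read served as the antagonist phase.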
# Active calls of the source: *; ? = inconclusive; . = not tested or not shown; [ ] = remark or other dose.
SMILES,Menin-MLL FL inh,TRPML1 inh,gsp agonist,gsp antag,ClpP mod,TRPML1 agonist
CC(OC(=O)c1ccncc1)C(=O)Nc1cccc(Cl)c1 (configuration not stated),1.8,-1,15%,-1%,0.2%,-0.7
Cc1nc(S(=O)(=O)N2CCN(c3ccccc3F)CC2)cn1C,.,3,.,.,4.3%,0.6
Cc1ccc(-n2nc3c(=O)n(C(C)C(=O)NCCCc4ccccc4)nc(C)c3c2C)cc1 (configuration not stated),-1.5,2,12%,?,-3.7%,-0.3
COc1cccc(CC2(CO)CCCN(CC3=Cc4cc(Cl)ccc4OC3)C2)c1 (configuration not stated),17,22,0%[15.4 µM],-6%,.,-0.7
O=C1NC(=O)C2(CCCC2)N1,.,-7,15%[15.4 µM],6%,0.0%,-0.2
CC(C)C[C@@H](CN)NC(=O)c1nc[nH]c1C(=O)N[C@@H](C)C(=O)CNC[C@H](C)NC(=O)c1nc[nH]c1C(=O)N[C@@H](CC(C)C)C(=O)O,.,27,.,6%,1.5%,-0.5
CC(C)COc1ccc(C(=O)N(Cc2cccc(F)c2)C2CCS(=O)(=O)C2)cc1 (configuration not stated),.,5,.,.,-0.1%,-0.4
C[C@@H]1CCCCCCCCC(=O)OCCN1C(=O)OC(C)(C)C,.,10,?,-8%,1.4%,0.6
CCOC(=O)c1ccccc1N/C=C/C(=O)c1ccccc1,.,-1,5%,?,4.5%,1.4
CCOc1ccc2c(c1)c(N=NC(=N)N)c(O)n2C,5.2,-24,-22%,-9%,1.0%,-0.6
CCOc1ccc(N(C(=O)CNC(=O)c2ccco2)C(C(=O)NC2CCCC2)c2ccncc2)cc1 (configuration not stated),-1.0,19,-1%,-3%,.,-0.4
COc1ccc(/C=C/C(=O)NC(=S)NNC(=O)c2cccs2)cc1OC,-0.6,1,4%[15.4 µM],-29%,.,0.7
CC(C)C(=O)Nc1ccc(-c2ccc3nncn3n2)cc1,-1.5,2,0%,5%,.,-0.5
O=C(CN1CCN(Cc2ccccc2Cl)C1=O)N1CCCCCC1,-0.4,13,-5%,4%,0.3%,0.3
O=C(CCC1N=C2c3ccccc3N=C(SCc3cccc(Cl)c3)N2C1=O)NCc1ccco1 (configuration not stated),8.2,2,4%,-11%,35µM*,0.5
Cc1ccc(-n2ncc(C(=O)NCCCN3CCCCC3)c2C2CCN(C(=O)OC(C)(C)C)CC2)c(C)c1,.,2,.,.,1.3%,4.8
COc1ccc(NC(=O)C2CCC(CNS(=O)(=O)c3csc(C(N)=O)c3)CC2)cc1OC (configuration not stated),.,?,?,0%,0.0%,0.0
O=C(CCCC(=O)N(c1ccc2c(c1)OCCO2)C(C(=O)NC1CCCCC1)c1ccc(Cl)cc1)Nc1ccccn1 (configuration not stated),1.4,10,5%,2%,0.2%,1.1
Cc1ccc(-n2nc3c(=O)n(CC(=O)NCc4ccc(C)o4)nc(C)c3c2C)cc1,0.0,21,13%,-6%,-2.2%,-0.4
O=[N+]([O-])c1cccc(S(=O)(=O)Nc2ccc(S(=O)(=O)Nc3nccs3)cc2)c1,.,-3,-2%,7%,1.6%,0.3
CCOc1ccccc1NC(=O)CSc1nc2c([nH]c3ccccc32)c(=O)n1-c1ccccc1,.,25,.,.,4.4%,0.0
COc1ccc(CC(NC(C)=O)C(=O)NC2CCN(C(=O)c3ccc([N+](=O)[O-])cc3)CC2)cc1OC (configuration not stated),-1.4,-3,-94%[inhibitor],14%,-0.4%,0.5
CCOC(=O)c1c(NC(=O)CSc2ncn[nH]2)sc(C(=O)N(C)C)c1C,.,2,-8%[15.4 µM],-4%,-3.8%,0.5
O=C(COC(=O)Cc1ccsc1)Nc1ccc(Cl)cn1,.,-6,-7%,-9%,-10%,1.9
CC(C)CN(C#N)c1nc(N2CCOCC2)nc(N2CCOCC2)n1,0.0,-10,11%,-15%,-1.9%,-0.1
CN(CCN1CCc2ccccc2C1)Cc1nc(-c2ccc3c(c2)OCO3)no1,-3.3,-4,-16%,-3%,.,-0.6
CCCCOc1ccc(NC(=O)c2cc(F)c(F)cc2Cl)cc1,3.4,17,-9%,0%,-2.5%,3.2
CC(=O)Nc1ccc(NC(=O)C(C)Oc2ccccc2C(=O)NCc2ccccc2)cc1 (configuration not stated),.,1,5%,-9%,-6.2%,-0.1
Cc1noc(NS(=O)(=O)c2ccc(NC(=O)C(C)C)cc2)c1C,2.2,31,-25%[15.4 µM],5%,-1.4%,0.1
Cc1cc(-c2nnco2)c(C)n1-c1ccccc1,0.9,-4,2%,10%,1.2%,2.6
CCC(=Cc1ccccc1O)c1ccncc1,.,-20,2%,1%,.,3.0
C(=N\n1cnc2ccccc21)/c1cccnc1,2.9,-3,-23%,6%,-1.9%,-0.9
CN(CCC#N)C(=O)COC(=O)c1ccc(Cl)c(S(N)(=O)=O)c1,2.1,-1,?,8%,-0.8%,-0.6
O=C1C=C(c2ccc(F)nc2)CCC1,.,-16,-46%,3%,2.3%,-0.2
Cc1cccc(CC2C(=O)Nc3ccccc32)c1 (configuration not stated),.,8,.,.,0.6%,1.9
CCOc1ccccc1CN1C(=O)C2(OCCO2)c2ccccc21,-7.4,.,0%,-7%,0.0%,.
COc1ccc(OCC(=O)N2CCN(C(=O)c3cccc(OC)c3OC)CC2)cc1,.,-6,.,.,-2.2%,1.8
CC(NC(=O)COC(=O)c1ccc(S(=O)(=O)N2CCOCC2)cc1)c1ccccc1 (configuration not stated),.,-14,-4%,-26%,1.6%,0.7
C=CCSc1n[nH]c(-c2ccc(OC)cc2)n1,6.4,-9,?,6%,-0.9%,-0.5
Cc1sc(NC(=O)C2=COCCO2)c(C(N)=O)c1C,.,14,-13%[15.4 µM],3%,-7.5%,0.6

# Shown with each value named: part of the list above
SMILES: CC(C)C(=O)Nc1ccc(-c2ccc3nncn3n2)cc1
  Menin-MLL FL inh: -1.5
  TRPML1 inh: 2
  gsp agonist: 0%
  gsp antag: 5%
  ClpP mod: .
  TRPML1 agonist: -0.5
SMILES: O=C(CN1CCN(Cc2ccccc2Cl)C1=O)N1CCCCCC1
  Menin-MLL FL inh: -0.4
  TRPML1 inh: 13
  gsp agonist: -5%
  gsp antag: 4%
  ClpP mod: 0.3%
  TRPML1 agonist: 0.3
SMILES: O=C(CCC1N=C2c3ccccc3N=C(SCc3cccc(Cl)c3)N2C1=O)NCc1ccco1 (configuration not stated)
  Menin-MLL FL inh: 8.2
  TRPML1 inh: 2
  gsp agonist: 4%
  gsp antag: -11%
  ClpP mod: 35µM*
  TRPML1 agonist: 0.5

# (continued)
SMILES,Menin-MLL FL inh,TRPML1 inh,gsp agonist,gsp antag,ClpP mod,TRPML1 agonist
CC(=O)CSc1ccc(S(=O)(=O)N2CCN(C)CC2)cn1,.,-11,-14%,14%,0.7%,-0.7
CN1CCc2c1nc1ccccc1c2N (tested in a mixture with another compound),3.8,21,0%[15.4 µM],3%,1.6%,0.6
CCOC(=O)C1(Cc2cccc(F)c2)CCN(Cc2cnn(CC)c2)CC1,-7.9,6,-12%[15.4 µM],4%,.,-0.4
CCOc1ccc(OCC)c(NC(=O)c2nnn(CC(=O)Nc3cc(C)cc(C)c3)c2N)c1,.,8,16%,-17%,3.6%,0.8
CCSc1ccc(C(=O)Nc2cccc(C)n2)cc1[N+](=O)[O-],-0.4,-4,-9%,?,-0.5%,-0.7
COc1ccc(C=CC(=O)c2cc(O)ccc2O)cc1,.,-4,-37%[inhibitor],-10%,.,-1.1
COc1ccc(CCNC(=O)COC(=O)c2cc(OC)c(OC)cc2OC)cc1OC,-1.4,18,-4%[15.4 µM],2%,.,1.7
Cc1ccc(C(=O)OCC(=O)N2CCOCC2)c(C)c1,-4.6,-9,-15%,8%,.,-0.5
CCc1ccc(NC(=O)C/C(C)=N/NC(=O)COc2ccc(C)cc2Br)cc1,.,25,-6%[15.4 µM],-25%,.,0.4
COC(=O)c1cc(Nc2cc(C)c3c(O)cccc3n2)cc(C(=O)OC)c1,7.9,9,-35%[inhibitor],6%,-10%,-0.3
O=C(O)/C=C/C(=O)NCCc1ccccc1,-0.3,7,?,-13%,1.5%,0.3
O=C(N/N=C/c1ccccn1)c1cc(C2CC2)[nH]n1,0.9,-6,20%,3%,.,-0.4
Cc1c(CCC(=O)NCC(=O)NCC(=O)O)c(=O)oc2cc3oc4c(c3cc12)CCCC4,-4.7,-9,17%,6%,3.3%,?
COc1cccc(CNC(=O)c2csc3c2CCCC3)c1,.,-13,-32%[inhibitor],-5%,-2.9%,0.3
COc1ccc(S(=O)(=O)N2CCc3ccccc32)cc1C(=O)OCc1nnc(-c2ccccc2)o1,9.1,5,1%,-5%,-0.3%,0.1
COC(=O)c1c(NC(=O)c2ccccc2)sc(C(N)=O)c1C,4.5,16,-10%[15.4 µM],-10%,.,-0.7
CCN(CC)S(=O)(=O)c1ccc(OC)c(NC(=O)c2cc(=O)[nH]c3ccccc23)c1,-2.7,-10,49%[15.4 µM],.,.,2.4
Cc1nc2ccc(NS(=O)(=O)c3ccccc3F)cc2s1,.,0,-1%,-9%,-3.2%,-1.2
CN1CCN(CC(=O)O)CC1,1.4,-2,20µM*,13%,-2.0%,0.3
COc1cccc(OCc2cc(C(=O)NCCN3CCCCC3CO)no2)c1 (configuration not stated),.,-7,15%,-13%,-1.1%,0.6
O=C(COc1ccccc1)Nc1cccc2nsnc12,6.3,26,0%,-1%,-10%,1.0
O=[N+]([O-])c1ccc(C=NN2CCCCCC2)cc1,.,7,-2%[15.4 µM],-5%,1.1%,-0.5
Cc1c(-c2ccccc2)n[nH]c1C(=O)N=Nc1c(O)[nH]c2ccccc12,-2.9,-3,-3%,-4%,.,-0.7
CCOC(=O)C1CCCN(c2nc3ccccc3nc2NS(=O)(=O)c2ccc(C)cc2)C1 (configuration not stated),.,-1,-4%,-16%,?,-0.3
CC(=O)Nc1ccc(-n2cc(-c3ccccc3)[nH]c2=S)cc1,0.7,-5,31%,-10%,-9.8%,0.2
O=C(NCCc1ccccc1)C1Cc2c(-c3ccccc3)ccnc2O1 (configuration not stated),.,38,.,.,?,0.3
O=C(N/N=C/c1ccc(-c2ccc([N+](=O)[O-])cc2)o1)c1cccnc1,3.8,7,3%[15.4 µM],-33%,-0.3%,0.1
COc1ccc(C)cc1NC(=O)CSc1nnc(-c2cc3cccc(OC)c3o2)n1N,0.0,-14,1%,-15%[15.4 µM],0.3%,0.2
COc1cc(OC)c2ccc(=O)oc2c1C(CC(=O)N1CCOCC1)c1ccc(N(C)C)cc1 (configuration not stated),5.6,-4,.,3%,1.0%,-0.5
O=C(NC1CCCCC1)C1CCCN(S(=O)(=O)c2ccc(Br)s2)C1 (configuration not stated),1.0,31,?,7%,.,3.3
COC(=O)C1(O)CC(C(C)C)=NN1C(=O)c1ccc(Cl)cc1 (configuration not stated),2.3,-13,-22%,2%,1.1%,0.0

# Compounds as they come; any-hit rate near 2.1%.
